DUX4 txn inh: inhibitors of DUX4-driven ZSCAN4 reporter expression, primary screen, 293T cells, Gaussia and Italica luciferase. 293T-iDUX4 ZSCAN4-Gaussia luciferase reporter, 24 h; hits give low values. activity change, negative = inhibition, % (no concentration beside the values). hit rate 0.8% among 37,000;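 active means -10% or lower and over 25 points stronger than a control reporter; inconclusive means -10% or lower with a smaller gap; inactive means above -10%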;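 further: 0% = median of neutral control wells and -100% = median of positive control wells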
DUX4 txn inh difference: second read-out of DUX4 txn inh, no call of its own (marks repeat the call); Gaussia minus Italica difference, %; measured here: selective DUX4 reporter inhibition;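 worked out from the two reporters; negative = selective loss of the DUX4 reporter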
DUX4 txn inh control: also measured in DUX4 txn inh; calls as there; activity change, negative = inhibition, %; measured here: Italica tet-on control reporter;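 0 = neutral control and -100 = positive control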
* hit, by the source's call; ? = inconclusive; . = no result given; & = joins results of further samples. These rows are one share of the data. The share of hits here may be higher or lower than overall.

DUX4 txn inh | DUX4 txn inh difference | DUX4 txn inh control | mol
-6 | -4 | -2.0 | O=C(C[C@H]1C[C@@H]2c3cc(NC(=O)Nc4ccccc4F)ccc3O[C@@H]2[C@@H](CO)O1)NCC(F)(F)F
1 | 2 | -1.8 | O=C(c1ccc2c(c1)OCO2)N1C[C@H]2[C@@H](c3ccccc31)[C@H](CO)N2C(=O)CC1CC1
1 | -2 | 3.0 | C[C@H](CO)N1C[C@H](C)[C@@H](CN(C)C(=O)Nc2ccc(C(F)(F)F)cc2)OCCCC[C@H](C)Oc2ccc(NS(=O)(=O)c3ccc(Cl)cc3)cc2C1=O
-1 | -2 | 0.9 | COc1ccc(S(=O)(=O)N(C)C[C@@H]2OCCCC[C@@H](C)Oc3ccc(NC(=O)Cc4ccccc4)cc3C(=O)N([C@H](C)CO)C[C@@H]2C)cc1
7 | -3 | 9.8 | O=C(C[C@@H]1CC[C@@H]2NC[C@H](O)COC[C@H]2O1)NCCc1ccncc1
1 | 0 | 0.8 | C[C@@H]1CCCCO[C@@H](CN(C)Cc2ccc(Cl)c(Cl)c2)[C@@H](C)CN([C@H](C)CO)C(=O)c2cc(NS(=O)(=O)c3cccs3)ccc2O1
3 | -2 | 5.3 | CN(C)CC(=O)N1[C@H](C#N)[C@H](c2ccc(C#CC3CCCC3)cc2)[C@H]1CO
10 | 5 | 5.2 | O=C(C[C@H]1C=C[C@H](NC(=O)c2cccnc2)[C@H](CO)O1)NCCN1CCCCC1
-2 | -6 | 4.2 | CN(C)C(=O)C[C@H]1CC[C@H]2[C@@H](COC[C@@H](O)CN2C(=O)C2CCOCC2)O1
6 | 3 | 3.1 | CCCNC(=O)N1[C@H](CO)[C@H](c2ccc(C#CCN(C)C)cc2)[C@@H]1C#N
-3 | -5 | 2.6 | C[C@@H]1CCCCO[C@@H](CN(C)C(=O)CCCN(C)C)[C@H](C)CN([C@H](C)CO)C(=O)c2cc(NC(=O)Nc3ccc4c(c3)OCO4)ccc2O1
-7 | 26 | -33 | COc1cccc(-c2ccc3c(c2)[C@@H]2[C@@H](CCN2S(=O)(=O)c2ccccc2C)[C@H](CO)N3)c1
-2 | -2 | 0.5 | O=C(c1cccnc1)N1C[C@H]2[C@@H](c3ccccc31)[C@H](CO)N2C(=O)CN1CCOCC1
-3 | -6 | 2.8 | CO[C@H]1CC[C@@H]2CCN(C)C(=O)[C@H](C)[C@H](OC)CN(C)C(=O)c3cccc(C#N)c3OC[C@@H]1O2
6 | 11 | -4.8 | O=C(C[C@@H]1CC[C@@H]2NC[C@@H](O)COC[C@H]2O1)Nc1ccc(-c2ccccc2)cc1
4 | -3 | 6.6 | Cc1ccc(S(=O)(=O)NCC[C@@H]2CC[C@H](NC(=O)CCN3CCCCC3)[C@@H](CO)O2)cc1
0 | -4 | 3.6 | C[C@H](CO)N1C[C@H](C)[C@H](CN(C)C(=O)C2CCCCC2)OCCCC[C@H](C)Oc2ccc(NC(=O)c3ccncc3)cc2C1=O
4 | 3 | 1.9 | O=C(O)C[C@@H]1C[C@H]2c3cc(NS(=O)(=O)c4ccc(F)cc4)ccc3O[C@H]2[C@H](CO)O1
-2 | -3 | 0.8 | C[C@H]1CN([C@@H](C)CO)C(=O)c2cccc(NC(=O)c3ccncc3)c2O[C@@H]1CN(C)CC1CCCCC1
5 | 3 | 1.5 | Cc1nn(C)cc1NC(=O)C[C@H]1CC[C@H]2[C@H](COc3ccc(NC(=O)Nc4cccc(Cl)c4)cc3C(=O)N2C)O1
2 | -2 | 3.5 | C[C@@H]1CCCCO[C@@H](CN(C)S(=O)(=O)c2ccc(F)cc2)[C@@H](C)CN([C@@H](C)CO)C(=O)c2cc(N(C)C)ccc2O1
-4 | -4 | 0.3 | CN1CCN(C(=O)[C@@H]2[C@@H](CO)[C@@H]3Cn4c(ccc(-c5cccnc5)c4=O)[C@@H]3N2CC2CC2)CC1
-3 | -3 | 0.7 | COc1ccc(C[C@H]2CCn3nncc3COCCCNC2=O)cc1
5 | 3 | 2.2 | O=C(NC1CCCC1)N1CC2(C1)[C@@H](c1ccccc1)[C@@H](CO)N2CC1CCOCC1
7 | 2 | 4.9 | COCC(=O)N1CC2(C1)[C@H](c1ccc(-c3ccc(F)cc3)cc1)[C@@H](CO)N2C(C)=O
1 | 5 | -4.5 | CO[C@@H]1CN(C)C(=O)c2cc(NS(C)(=O)=O)ccc2OC[C@@H](C)N(C)C[C@@H]1C
-9 | -1 | -8.6 | CCCNC(=O)[C@@H]1[C@@H](CO)[C@@H]2Cn3c(ccc(-c4ccc(F)cc4)c3=O)[C@H]1N2Cc1ccccc1F
5 | 8 | -3.1 | O=C(C[C@@H]1CC[C@H]2[C@@H](COC[C@@H](O)CN2Cc2nccs2)O1)NCc1ccccc1Cl
1 | 0 | 0.9 | O=C1N[C@H](c2ccccc2)COCc2cn(nn2)CC[C@@H]1Cc1cccc(Cl)c1
-7 | -10 | 2.8 | COc1ccc(-c2ccc([C@H]3[C@H]4CN(Cc5ccccc5)CC(=O)N4[C@H]3CO)cc2)cc1
3 | -1 | 4.7 | CCCN1C[C@@H](C)[C@@H](OC)CN(C)C(=O)c2ccc(NS(=O)(=O)c3cn(C)cn3)cc2OC[C@@H]1C
7 | -2 | 9.1 | O=C(c1ccc2c(c1)OCO2)N1CC(=O)N2[C@H](C1)[C@H](c1ccc(C#CC3CCCC3)cc1)[C@@H]2CO
2 | 7 | -5.6 | O=C(c1cccnc1)N1C[C@@H]2[C@H](c3ccccc31)[C@H](CO)N2C(=O)Nc1ccccc1F
0 | 2 | -1.6 | CO[C@@H]1CC[C@H]2CCN(C)C(=O)C[C@H](c3ccccc3)CN(C)C(=O)c3cccc(C#N)c3OC[C@@H]1O2
11 | 8 | 3.0 | C[C@H]1CN([C@@H](C)CO)C(=O)c2ccccc2-c2ccccc2CO[C@H]1CN(C)C(=O)c1ccncc1
5 | 6 | -0.8 | CC(C)NC(=O)N1C[C@H]2[C@@H](c3ccccc31)[C@@H](CO)N2C(=O)c1ccccc1F
1 | 0 | 0.4 | COc1cccc(C(=O)Nc2ccc3c(c2)C(=O)N(C)[C@H]2CC[C@H](CC(=O)Nc4ccc5c(c4)CCCC5)O[C@@H]2CO3)c1
8 | 6 | 1.2 | O=C(C[C@@H]1C[C@H]2c3cc(NC(=O)NC4CCCCC4)ccc3O[C@H]2[C@H](CO)O1)NCc1ccccn1
3 | -2 | 4.3 | C[C@@H]1CN([C@@H](C)CO)C(=O)CCCn2nncc2CO[C@@H]1CN(C)Cc1ccc(C(=O)O)cc1
7 | 5 | 2.6 | COc1cccc(CNC(=O)C[C@H]2CC[C@@H](NC(C)=O)[C@H](CO)O2)c1
2 | -1 | 3.6 | COc1ccc(-c2ccc3c(c2)[C@@H]2[C@@H](CCN2C(=O)c2cnccn2)[C@H](CO)N3)cc1
11 | 10 | 1.3 | O=C(CN1CCOCC1)NCC[C@H]1CC[C@H](NC(=O)c2ccc3c(c2)OCO3)[C@@H](CO)O1
4 | 14 | -11 | O=S(=O)(c1ccccc1)N1CCCCN2[C@@H](CO)[C@H](c3ccc(C#CC4CCCC4)cc3)[C@@H]2C1
3 | -4 | 6.9 | COc1ccc(CN(C)C[C@@H]2Oc3ccc(NC(=O)Nc4c(C)noc4C)cc3C(=O)N([C@@H](C)CO)C[C@H]2C)cc1
5 | 1 | 4.2 | O=C(C[C@H]1CC[C@H](NS(=O)(=O)c2cccc(F)c2)[C@H](CO)O1)NCc1ccc2c(c1)OCO2

Part of the list above, as a markdown table.
| structure | DUX4 txn inh | DUX4 txn inh difference | DUX4 txn inh control |
| --- | --- | --- | --- |
| CCCNC(=O)[C@@H]1[C@@H](CO)[C@@H]2Cn3c(ccc(-c4ccc(F)cc4)c3=O)[C@H]1N2Cc1ccccc1F | -9 | -1 | -8.6 |
| O=C(C[C@@H]1CC[C@H]2[C@@H](COC[C@@H](O)CN2Cc2nccs2)O1)NCc1ccccc1Cl | 5 | 8 | -3.1 |
| O=C1N[C@H](c2ccccc2)COCc2cn(nn2)CC[C@@H]1Cc1cccc(Cl)c1 | 1 | 0 | 0.9 |

Continued.
DUX4 txn inh | DUX4 txn inh difference | DUX4 txn inh control | mol
0 | 2 | -2.2 | Cc1ccccc1S(=O)(=O)N1C[C@@H](O)COC[C@@H]2O[C@@H](CC(=O)NCCc3ccccc3)CC[C@H]21
2 | -15 | 16 | COCC(=O)N1CCCCN2[C@H](C1)[C@@H](c1ccc(-c3cccc(C)c3)cc1)[C@@H]2CO
-3 | -4 | 0.9 | CS(=O)(=O)Nc1ccc2c(c1)[C@@H]1C[C@@H](CC(=O)NCc3ccccn3)O[C@@H](CO)[C@@H]1O2
? | . | . | C[C@H]1CN([C@@H](C)CO)C(=O)c2c(c3ccccc3n2C)-c2ccccc2CO[C@H]1CN(C)Cc1ccc(F)cc1
-7 | -8 | 1.3 | COc1ccccc1C#Cc1ccc2c(c1)[C@@H]1[C@@H](CCN1C(=O)c1ccc(F)cc1)[C@H](CO)N2
1 | -1 | 2.4 | C[C@@H]1CN([C@H](C)CO)C(=O)CCCn2cc(nn2)CO[C@@H]1CN(C)Cc1cccnc1
? | . | . | CO[C@H]1CN(C)C(=O)c2ccc(NC(=O)Nc3ccc(C(F)(F)F)cc3)cc2OC[C@H](C)NC[C@@H]1C
-5 | -4 | -1.3 | C[C@@H]1CN([C@H](C)CO)C(=O)c2c(c3ccccc3n2C)-c2ccccc2CO[C@@H]1CN(C)Cc1cccc(C(F)(F)F)c1
? | . | . | O=C(C[C@@H]1C[C@@H]2c3cc(NS(=O)(=O)c4ccc(F)cc4)ccc3O[C@@H]2[C@@H](CO)O1)N1CCc2ccccc2C1
9 | 10 | -0.5 | COc1ccccc1-c1ccc(C2[C@H]3CNC[C@@H]2N3C(=O)Nc2ccccc2Cl)cc1 (some centres not stated)
18&11 | 13&16 | 4.7&-4.7 | CCCNC(=O)N1[C@@H]2CNC[C@H]1C2c1ccc(/C=C/c2ccccc2)cc1 (some centres not stated)
3 | -1 | 3.7 | C/C=C/c1ccc([C@H]2[C@@H](CO)N(C(C)=O)[C@H]2CN(C)S(C)(=O)=O)cc1
-1 | -2 | 1.4 | CCC(=O)N1C[C@H](C)[C@@H](OC)CN(C)C(=O)c2cc(NC(=O)C3CC3)ccc2OC[C@@H]1C
6 | 3 | 2.7 | O=C(C[C@H]1C[C@@H]2c3cc(NC(=O)C4CCC4)ccc3O[C@@H]2[C@H](CO)O1)NCc1ccccn1
-9 | -11 | 1.5 | COc1cccc(CN(C)C[C@@H]2OCc3ccccc3-c3c(n(C)c4ccccc34)C(=O)N([C@H](C)CO)C[C@H]2C)c1

Next section; it opens with the 5 that closed the last part.
DUX4 txn inh | DUX4 txn inh difference | DUX4 txn inh control | mol
18&11 | 13&16 | 4.7&-4.7 | CCCNC(=O)N1[C@@H]2CNC[C@H]1C2c1ccc(/C=C/c2ccccc2)cc1 (some centres not stated)
3 | -1 | 3.7 | C/C=C/c1ccc([C@H]2[C@@H](CO)N(C(C)=O)[C@H]2CN(C)S(C)(=O)=O)cc1
-1 | -2 | 1.4 | CCC(=O)N1C[C@H](C)[C@@H](OC)CN(C)C(=O)c2cc(NC(=O)C3CC3)ccc2OC[C@@H]1C
6 | 3 | 2.7 | O=C(C[C@H]1C[C@@H]2c3cc(NC(=O)C4CCC4)ccc3O[C@@H]2[C@H](CO)O1)NCc1ccccn1
-9 | -11 | 1.5 | COc1cccc(CN(C)C[C@@H]2OCc3ccccc3-c3c(n(C)c4ccccc34)C(=O)N([C@H](C)CO)C[C@H]2C)c1
? | . | . | COc1ccccc1NC(=O)N1C[C@@H](O)COC[C@H]2O[C@@H](CC(=O)N3CCC(Cc4ccccc4)CC3)CC[C@@H]21
0 | -6 | 5.7 | CCCNC(=O)Nc1ccc2c(c1)OC[C@@H](C)N(Cc1cncnc1)C[C@H](C)[C@H](OC)CN(C)C2=O
5 | 8 | -3.0 | O=C(Cc1ccccc1)N1CC2(C1)[C@H](c1ccccc1)[C@@H](CO)N2C(=O)Cc1ccccc1
10 | -1 | 11 | C[C@H](O)C#Cc1ccc([C@H]2[C@H](CO)N3CCCCN(C(=O)c4ccncc4)C[C@@H]23)cc1
2 | 1 | 1.3 | CC(C)CC#Cc1ccc([C@H]2[C@H]3CN(C(=O)c4cnccn4)CC(=O)N3[C@H]2CO)cc1
1 | 0 | 1.1 | O=C(NCCc1ccncc1)[C@H]1[C@H](CO)[C@H]2Cn3c(ccc(-c4ccncc4)c3=O)[C@@H]1N2
4 | 2 | 1.8 | CO[C@@H]1CN(C)C(=O)c2cc(NS(=O)(=O)CC(F)(F)F)ccc2OC[C@@H](C)NC[C@@H]1C
0 | 0 | 0.0 | C[C@@H]1CCCCO[C@H](CN(C)C(=O)c2ccncc2)[C@@H](C)CN([C@@H](C)CO)C(=O)c2cc(N(C)C)ccc2O1
-5 | -2 | -2.9 | C[C@H](NC(=O)[C@H]1[C@H](CO)[C@H]2Cn3c(cccc3=O)[C@@H]1N2Cc1ccccc1)c1ccccc1
-1 | 1 | -2.2 | Cc1ccc(S(=O)(=O)Nc2ccc3c(c2)CC(=O)N([C@H](C)CO)C[C@H](C)[C@@H](CN(C)C(=O)Nc2ccc4c(c2)OCO4)O3)cc1
-1 | -2 | 1.2 | CO[C@H](CN(C)C(=O)c1ccc2c(c1)OCO2)[C@H](C)CN([C@@H](C)CO)S(=O)(=O)c1ccc(F)cc1
-6 | 7 | -13 | CN(C)C(=O)C[C@@H]1CC[C@@H]2[C@H](COc3ccc(NC(=O)Nc4cccc(Cl)c4)cc3C(=O)N2C)O1
8 | 4 | 3.8 | O=C(CN1CCOCC1)N1CC(=O)N2[C@H](CO)[C@@H](c3ccc(-c4cccc(F)c4)cc3)[C@H]2C1

Screens (PubChem)
